High-throughput results: PubChem BioAssay, National Center for Advancing Translational Sciences (NCATS)
Rango release inh: qHTS Assay for Inhibitors of RanGTP induced Rango (Ran-regulated importin-beta cargo) - Importin beta complex dissociation; Snurportin-1 (Homo sapiens) + GTP-binding nuclear protein Ran (Homo sapiens) + Importin …; Biochemical FRET Rango-importin beta, RanGTP-induced dissociation; Potency, µM (highest dose often 46.1 µM), without a hit: at the highest dose activity change, negative = inhibition; 0.071% of 340,000 active; AID 540253, 2011; active means falling FRET ratio curve, often poorly fitted, with flat reads before Ran was added; inconclusive means other falling curves, or compound fluorescence or quenching; inactive means flat or rising ratio curve;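 also: potency is read from the fitted curve at half-maximal effect; % of control where 0% means no effect; nearly all actives have a fitted effect of over 45% in size; -100% = wells without RanGTP and RCC1; the record marks most hits as doubtful in a second field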
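Two FRET readings bracket the reaction: one 5 min after compound meets Rango–importin beta, another 45 min after RanGTP-RCC1 (0.6 uM Ran, 0.2 uM RCC1, 2 mM GTP) is added. Only the second defines inhibition.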
miR-21 reporter: qHTS Assay for Modulators of miRNAs and/orActivators of miR-21; HeLa miR-21 FLuc reporter, luciferase, 48 h; Potency, µM (titrated, usually from 38.3 µM), for the others: top-dose reporter change, positive = more light; 340,000 tested, under 10 active; AID 2288, 2010; active = well fitted rising curve with a large enough effect; inconclusive = small, poorly fitted or top-dose-only effect; inactive = no such curve, though single readings can be large or run the other way;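 also: % of control where 0% means no effect; miR-21 action dims this reporter so a rising signal means less miR-21 action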
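HeLa miR-21-FLuc reporter line, endogenous miR-21; 2000 cells/well in DMEM/10% FBS; compound titration up to ~40uM final, 48 h, 37 degree Celsius; luciferase detection reagent, 15 min lysis, CCD luminescence.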
GLA inh pH 4.5: qHTS Assay for Inhibitors of Human alpha-Galactosidase at pH 4.5; purified enzyme, 4-MU-alpha-Gal fluorescence, pH 4.5; activity change, negative = inhibition, % at 105 µM; Alpha-galactosidase A (Homo sapiens), P06280; 230,000 tested, under 10 active; inconclusive = small, poorly fitted or top-dose-only inhibition, or a rising curve; inactive = flat fitted curve, though single readings scatter; no compound was filed as active;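 also: 0% = full activity with enzyme and -100% = basal without enzyme; dose as in the result columns while the protocol names 77 µM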
Rango-impB inh: qHTS Assay for Inhibitors of Rango (Ran-regulated importin-beta cargo) - Importin beta complex formation; Importin subunit beta-1 (Homo sapiens), Q14974; 0.031% of 340,000 active; Rango CFP/YFP FRET sensor + importin beta, 45 min; Potency, µM (top dose mostly 92.2 µM), for the others: at the top dose inhibition of complex formation; AID 540263, 2011; active = rising FRET ratio curve, often small or poorly fitted; inconclusive = mostly compound fluorescence or quenching in the first reads; inactive = flat curves in all reads;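 also: potency is read from the fitted curve at half-maximal effect; 0% = DMSO wells and 100% = buffer wells lacking importin beta; nearly all actives have a fitted effect of over 15% in size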
Target sequence (Q14974 whole entry, looked up): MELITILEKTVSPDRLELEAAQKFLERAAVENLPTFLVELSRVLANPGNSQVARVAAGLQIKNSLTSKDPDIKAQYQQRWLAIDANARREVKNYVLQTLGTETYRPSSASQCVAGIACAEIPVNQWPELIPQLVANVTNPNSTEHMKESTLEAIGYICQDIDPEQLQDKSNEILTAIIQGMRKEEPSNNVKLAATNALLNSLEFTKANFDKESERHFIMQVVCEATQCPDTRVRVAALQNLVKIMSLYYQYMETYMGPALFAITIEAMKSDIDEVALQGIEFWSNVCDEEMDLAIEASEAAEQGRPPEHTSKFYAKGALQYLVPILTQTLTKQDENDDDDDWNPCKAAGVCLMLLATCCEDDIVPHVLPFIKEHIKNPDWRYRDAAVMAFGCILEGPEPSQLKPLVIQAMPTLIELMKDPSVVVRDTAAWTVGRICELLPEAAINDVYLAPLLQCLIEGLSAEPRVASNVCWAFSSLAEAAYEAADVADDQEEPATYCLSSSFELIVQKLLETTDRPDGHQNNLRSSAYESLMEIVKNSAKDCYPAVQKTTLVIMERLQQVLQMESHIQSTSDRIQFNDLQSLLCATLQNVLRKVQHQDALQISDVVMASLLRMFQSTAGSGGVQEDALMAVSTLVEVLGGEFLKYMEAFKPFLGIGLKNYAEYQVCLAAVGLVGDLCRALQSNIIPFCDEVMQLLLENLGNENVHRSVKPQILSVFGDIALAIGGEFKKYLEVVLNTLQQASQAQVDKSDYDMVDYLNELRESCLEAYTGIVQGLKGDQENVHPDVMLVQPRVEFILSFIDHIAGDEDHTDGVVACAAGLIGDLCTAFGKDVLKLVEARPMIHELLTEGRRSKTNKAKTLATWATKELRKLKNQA
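FRET biosensor Rango (snurportin 1 IBB between N-terminal EYFP and C-terminal Cerulean), 50 nM in PBS/1 mM DTT/0.02% Tween-20/0.1% BSA, preincubated 5 min RT with compound; 0.125 microM importin beta added, 45 min RT, CFP/YFP FRET ratio read.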
* hit, by the source's call; ? = inconclusive; . = not tested or not shown. This is a subset; count on the stated rates, not on these rows.

Fields – Rango release inh	miR-21 reporter	GLA inh pH 4.5	Rango-impB inh
- CC(Oc1ccccc1)C(=O)N=C1SC2CS(=O)(=O)CC2N1c1ccc(F)cc1 (stereo not given)
→ 2%	-5%	.	1.4%
- N#Cc1cnn(-c2ccccc2)c1NC(=O)CN1CCOCC1
→ 6%	-1%	5	0.3%
- CC1Cc2ccccc2N1CC(=O)N(C)c1c(N)n(Cc2ccccc2)c(=O)[nH]c1=O (stereo not given)
→ ?	.	.	?
- COc1ccccc1NC(=O)CSc1nnc(C)n1CC1CCCO1 (stereo not given)
→ -14%	-1%	0	-3.1%
- Cc1ccc(OCCOC(=O)c2nc3nccc(C)n3n2)cc1
→ 16%	-2%	-1	-4.2%
- COc1cccc(CNC(=O)Nc2cccs2)c1
→ -20%	-46%	-6	?
- CN(Cc1nccs1)C(=O)C1CCC(=O)N(CCCc2ccccc2)C1 (stereo not given)
→ 6%	0%	.	0.4%
- CC(C)CN1C(=O)c2ccc(C(=O)NCc3ccc4c(c3)OCO4)cc2C1=O
→ 11%	-2%	4	0.3%
- CC1(c2ccccc2)NC(=O)N(CC(=O)Nc2ccc(S(=O)(=O)Nc3ncccn3)cc2)C1=O (stereo not given)
→ -12%	.	.	-0.3%
- O=C(O)CCc1nc2cccnc2n1Cc1ccccc1
→ -2%	-9%	-6	?
- O=C(CN1C(=O)NC2(CCCC2)C1=O)Nc1ccccc1N1CCCC1
→ -6%	-3%	.	-2.6%
- CCCNC(=O)CSC1=N/C(=C/c2ccc(F)cc2)C(=O)N1CC
→ 12%	-3%	-4	-0.9%
- CN(C)CCNC(=O)C(c1ccccc1)c1ccccc1
→ ?	4%	-11	-1.5%
- CC1CCN(C(=O)CSc2nnc(Cc3ccccc3)o2)CC1
→ 2%	-6%	1	0.0%
- CCOC(=O)Cn1nnc(-c2ccc([N+](=O)[O-])cc2)n1
→ 1%	-1%	-2	1.5%
- Cc1cc(Cl)c2oc(C(=O)N(CCO)Cc3ccccc3)c(C)c2c1
→ 19%	-52%	.	-3.0%
- O=C(NCCN1CCNC1=O)C1CCC(=O)N(Cc2cccc(C(F)(F)F)c2)C1 (stereo not given)
→ 1%	1%	.	0.3%
- N#Cc1c(-c2ccc(F)cc2)cc(-c2ccccc2)nc1SCC(=O)NCC(=O)O
→ -8%	3%	-14	-4.6%
- COc1cccc2cc(C(=O)N(Cc3cccs3)CC3CCCO3)c(=O)oc12 (stereo not given)
→ 0%	-5%	4	0.2%
- CC(=NNS(=O)(=O)c1cccc([N+](=O)[O-])c1)c1ccc(-n2ccnc2)cc1
→ 3%	.	.	-4.3%
- CCc1cccc(NC(=O)C2CCN(S(=O)(=O)c3c(C)noc3C)CC2)c1
→ 1%	-3%	-13	1.4%
- COc1ccc(OC)c(NC(=O)CCS(=O)(=O)c2cc3c(cc2C)NC(=O)CO3)c1
→ -14%	0%	.	-3.7%
- O=C(O)CSCC(=O)N1CCN(S(=O)(=O)c2cc(Cl)cc(Cl)c2)CC1
→ -10%	-5%	3	-3.9%
- CCOC(=O)c1cc(-c2ccccc2)n(CC(=O)Nc2ccc(OCC)cc2)c1C
→ -1%	14%	1	3.9%
- CC(CCCN1CCCC1)Nc1ccnc2cc(Cl)ccc12 (stereo not given)
→ 2%	.	.	0.0%
- Cc1cccc(C(=O)Nc2cccc(Br)c2)c1[N+](=O)[O-]
→ 0%	-14%	-7	-1.4%
- Cc1ccc(Cl)cc1N(Cc1ccc(C(=O)NCc2cccnc2)cc1)S(=O)(=O)c1ccccc1
→ 6%	14%	-15	-1.3%
- COc1ccc(Cn2c(=O)[nH]c3cc(C(=O)N4CCN(c5ccccc5OC)CC4)ccc3c2=O)cc1
→ -5%	12%	.	3.9%
- COc1cccc(CN(C)C(=O)COc2cccc3c2OC(C)(C)C3)c1OC
→ -3%	.	.	4.1%
- Cc1ccc(Cn2nnc3c(=O)n(Cc4cc(C)ccc4C)cnc32)cc1
→ 10%	-1%	-4	-4.8%
- O=S(=O)(c1cc(O)ccc1O)c1cccc2c(S(=O)(=O)c3cc(O)ccc3O)cccc12
→ 14%	.	.	?
- Cc1nnc(NC(=O)c2ccc(S(=O)(=O)C(F)F)cc2)s1
→ -19%	-24%	-2	-3.4%
- Cc1ccc(S(=O)(=O)CCC(=O)N(CCN2CCOCC2)c2nc3ccccc3s2)cc1
→ -13%	.	.	-1.6%
- Cc1cc(C(=O)N2CCN(S(=O)(=O)c3ccccc3)CC2)c(C)o1
→ 0%	1%	.	?
- COc1cccc(/C=C/C(=O)OCC(=O)Nc2ccc3[nH]c(=O)[nH]c3c2)c1OC
→ 11%	.	.	3.4%
- CCOc1ccccc1CNCCOC
→ 1%	8%	6	-2.9%
- O=C(Nc1nnc(SCc2ccccc2)s1)c1cccc([N+](=O)[O-])c1
→ -8%	-6%	-4	1.8%
- CC1=C(C(=O)NC2CCCCC2C)C2(CCC(C)CC2)OC1=O (stereo not given)
→ 17%	-6%	-1	3.9%
- CCOc1ccc(S(=O)(=O)Nc2ccc3c(c2)n(C)c(=O)n3C)cc1
→ -1%	18%	.	-1.7%
- O=C(CSc1nc2ccccc2s1)N/N=C/c1ccc(C(=O)O)cc1
→ -9%	-9%	-7	3.3%
- Fc1cccc(Cl)c1/C=N/Nc1c(Cl)cncc1Cl
→ 11%	-19%	0	-3.6%
- CN(Cc1cn[nH]c1-c1ccc(-c2ccccc2)cc1)CC1CCOCC1
→ 1%	-29%	-9	0.1%
- OC1CN=C2C=CC=CN2C1 (stereo not given)
→ -10%	3%	-1	-1.7%
- CCOc1ccc(NC(=O)C2CCN(C(=O)NC3CCCCC3)CC2)cc1
→ 1%	-7%	2	-0.6%
- O=C(c1cccc(C(F)(F)F)c1)N1CCC2(CC1)NCCc1[nH]cnc12
→ -1%	-2%	.	0.1%
- CC1CCCN(c2ccc(C(=O)NCc3ccc4c(c3)OCO4)cc2[N+](=O)[O-])C1 (stereo not given)
→ 11%	-13%	-5	6.5%
- O=C(CSc1ccc(-c2ccco2)nn1)N1CCCCC1
→ -1%	-17%	-4	3.1%
- CCc1ccc(CN(C)CC(=O)Nc2ccc(S(=O)(=O)N3CCOCC3)cc2)cc1
→ -1%	.	.	-0.4%
- CCn1c(=O)c(C(=O)CN2CCN(Cc3ccc4c(c3)OCO4)CC2)c(N)n(Cc2ccccc2)c1=O
→ -10%	-1%	-1	-2.7%
- CN(CCO)c1c2c(nc3cc(-c4cccc(F)c4)nn13)CCCC2
→ -13%	-9%	-7	3.4%

Quoted at random: 2 records from the list.
Fields – Rango release inh	miR-21 reporter	GLA inh pH 4.5	Rango-impB inh
- CN(CCO)c1c2c(nc3cc(-c4cccc(F)c4)nn13)CCCC2
→ -13%	-9%	-7	3.4%
- O=C(CSc1ccc(-c2ccco2)nn1)N1CCCCC1
→ -1%	-17%	-4	3.1%

(list continues)
Fields – Rango release inh	miR-21 reporter	GLA inh pH 4.5	Rango-impB inh
- CC(C)(C)c1ccc(NC(=O)NC2CCCc3ccccc32)cc1 (stereo not given)
→ 8%	-4%	-16	-2.9%
- CCc1cccc(CC)c1NC(=O)c1cccc(N)c1
→ 0%	-1%	0	-4.3%
- COc1cc(C(=O)O/N=C2\C=CC(=O)C=C2C)cc(OC)c1OC
→ 7%	3%	2	-0.2%
- CC1SCC(=O)N(CC(=O)Nc2ccc3c(c2)OCCO3)C1=O (stereo not given)
→ 1%	2%	9	-1.0%
- COCCCNc1nc(-c2ccncc2)nc2ccccc12
→ -6%	-1%	2	0.0%
- N#Cc1ccc(-c2cccs2)nc1SCc1cccnc1
→ 4%	15%	13	0.2%
- O=C(CCn1c2c(c3ccccc31)CCCC2)NNC(=O)c1ccccc1[N+](=O)[O-]
→ -16%	3%	-3	-2.0%
- Cc1ccc(NC(=O)CSc2ncn[nH]2)cc1
→ 5%	3%	1	-1.4%
- CCN(Cc1ccncc1)C(=O)c1ccc(C)c(S(=O)(=O)N2CCCCC2)c1
→ 13%	.	.	-0.3%
- NC(=O)c1oc2ccccc2c1NC(=O)C1CCCCC1
→ 7%	-2%	10	-0.6%
- COC(=O)CNC(=O)c1c(-c2c(Cl)cccc2Cl)noc1C
→ -9%	-5%	1	-3.2%
- COc1oc(-c2ccccc2C)nc1C(F)(F)F
→ 1%	-1%	6	0.6%
- CCN1C(=O)C(CC(=O)Nc2cc(C)ccc2C)SC1=Nc1ccc(S(N)(=O)=O)cc1 (stereo not given)
→ 13%	10%	-3	5.5%
- O=C(NCc1ccccc1)c1ccc(N2CCC3(CC2)CC(c2ccc(Cl)cc2)=NO3)c([N+](=O)[O-])c1
→ 16%	15%	.	0.4%
- O=C(C1COc2ccccc2O1)N1CCN(c2ccccc2)CC1 (stereo not given)
→ 2%	-13%	-2	1.5%
- COc1ccc(C(=O)Nc2cccc(-c3nc4ncccc4o3)c2C)cc1OC
→ 2%	0%	-14	1.5%
- Cc1noc(C)c1COc1ncnc2ccccc12
→ 18%	6%	5	12%
- O=c1c2cc(F)ccc2sn1-c1ccccc1
→ 1%	.	.	-4.1%
- COC(=O)CCSCc1cn2cc(Cl)ccc2n1
→ 1%	0%	2	-0.1%
- CN(CC(=O)Nc1cccc(F)c1)C(=O)c1cc(-c2ccco2)nc2ccccc12
→ -10%	.	.	-0.9%
- COc1cccc(NC(=O)c2cc(-c3ccccn3)nc3ccccc23)c1
→ 0%	.	.	-1.6%
- CC(C)C(NC(=O)OCc1ccccc1)C(=O)OCC(=O)N1CCCCC1 (stereo not given)
→ 7%	-50%	3	?
- COc1ccc2oc(C(=O)N(C)Cc3ccc4c(c3)OCCO4)c(C)c2c1
→ -2%	.	.	?
- Cc1cc(C(=O)CN2C(=O)c3ccccc3C2=O)c(C)n1Cc1cccs1
→ -4%	8%	0	1.7%
- CC(C)(C)OC(=O)NCc1nc(N)n[nH]1
→ -4%	-10%	2	3.0%
- Cc1cc(C)cc(N(CCC#N)C(=O)CSc2nc3nc(C)cc(C)n3n2)c1
→ 1%	-11%	10	4.5%
- COC(=O)c1ccccc1NC(=O)c1ccc(NC(=O)C2CCCO2)cc1 (stereo not given)
→ -8%	-1%	.	1.4%
- O=C(Nc1ccc(NC(=O)c2ccco2)nc1)c1ccco1
→ 19%	-4%	2	-4.6%
- C[C@@H]1CN(Cc2nc(Cc3ccccc3F)no2)C[C@H](C)O1
→ -5%	0%	8	5.0%
- CCOC(=O)C1CCN(S(=O)(=O)c2c(C)[nH]c(C)c2C(=O)N2CCCCC2)CC1
→ 0%	0%	.	-0.8%
- Cc1cc(-c2n[nH]c(=S)n2/N=C/C(Cl)=C/c2ccccc2)n[nH]1
→ 6%	12%	-1	-2.1%
- CCOC(=O)/C(C#N)=C/c1cccc(C)c1
→ 10%	-4%	-7	0.3%
- O=[N+]([O-])c1ccccc1S(=O)(=O)Nc1cccnc1
→ -5%	-3%	.	0.0%
- COc1ccc(C(=O)Nc2cc(C(F)(F)F)ccc2-n2cnc3ccccc32)cc1
→ 0%	-4%	-1	3.4%
- COC(=O)c1cccc(NS(C)(=O)=O)c1C
→ -2%	0%	6	0.9%
- CCOC(=O)c1cc2c(n(-c3ccc(C)cc3)c1=O)CCCC2=O
→ 1%	-3%	2	-1.8%
- Cn1cc(C(=O)c2ccc(Cl)cc2Cl)cc1C(=O)N/N=C(\N)COc1cccc(C(F)(F)F)c1
→ 5%	22%	-19	-3.9%
- COc1cc(C(=O)Nc2cccc(-c3nc4ncccc4o3)c2C)cc(OC)c1OC
→ -1%	3%	7	0.4%
